YB-1 expr inh: YB-1 expression inhibition; U2OS, qRT-PCR YB-1 vs CDIP delta delta Cp, 16 h; active compounds read high; zero = DMSO, each unit about twofold; delta delta Cp (YB-1 minus CDIP) (concentration not given with the values); actives 0.37% (n = 30,000);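 active means delta delta Cp rounded down to an integer at or above 3, about 3 SD of DMSO wells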;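 further: higher means less YB-1 transcript or more CDIP transcript relative to DMSO; stock transfer was 100 nL into about 100 µL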
PD-1 reversal: reversal of PD-1 mediated T-cell inhibition; AID 2316; 29,000 tested, under 10 active; activation, % (test concentration not listed); primary human CD4 T cells, PD-L1 beads, CellTiter-Glo 96 h;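 active means replicate mean of 50% or more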;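 further: 0% = median vehicle wells and 100% = positive control; 100 nL library stock added to about 50 µL; numbers are from one replicate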
Hedgehog inh: Sonic Hedgehog pathway inhibition. Shh-LIGHT2 Gli-luciferase reporter, 30 h. inhibition, % (no concentration beside the values). actives 2.1% (n = 22,000);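 active means replicate mean of 65% or more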;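 further: pathway switched on by Shh-conditioned medium diluted 1 in 25 in low serum; 100 nL library stock added to about 40 µL; 0% = median of neutral wells and 100% = positive control level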
MITF inh: blocks MITF activity | TRPM1 promoter luciferase, luminescence, 24 h | inhibition, % (no concentration beside the values) | actives 0.28% (n = 37,000) | AID 2240;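 active means most replicates at 85% or more, or half of them and the mean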;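 further: human melanocyte line stably carrying TRPM1 promoter luciferase reporter; 0% = vehicle wells and 100% = a positive control; the first replicate is given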
Active calls of the source: *; . = not tested or not shown. Only part of the results is shown; the hit share may differ from the screen's.

SMILES	YB-1 expr inh	PD-1 reversal	Hedgehog inh	MITF inh
CC(C)NC(=O)Nc1ccc2c(c1)C(=O)N([C@H](C)CO)C[C@H](C)[C@H](CN(C)S(=O)(=O)c1ccc(F)cc1)O2	-0.276	1.4	.	0.9
CC(C(=O)Nc1ccccc1Br)N(c1ccc(Cl)cc1)S(C)(=O)=O (stereo not given)	.	-0.5	.	6.0
C[C@H]1CN([C@@H](C)CO)C(=O)c2cccc(NC(=O)c3ccncc3)c2O[C@H]1CN(C)C(=O)Nc1ccc(F)cc1	-0.174	1.3	-21.0	2.8
C[C@H](CO)N1C[C@H](C)[C@@H](CN(C)S(=O)(=O)c2cn(C)cn2)Oc2c(NS(=O)(=O)c3ccccc3)cccc2C1=O	-0.489	.	2.0	-0.1
C[C@@H]1CN([C@H](C)CO)C(=O)Cc2cc(NC(=O)Nc3ccccc3)ccc2O[C@@H]1CN(C)Cc1ccc(C(=O)O)cc1	0.14	.	-18.1	-21.7
COc1ccc(S(=O)(=O)Nc2ccc3c(c2)C(=O)N([C@H](C)CO)C[C@H](C)[C@H](CN(C)C)OCCCC[C@@H](C)O3)cc1	0.209	1.7	-13.7	-9.5
O=C(NCCO)c1cccc(Nc2nc(-c3ccccc3)c3cc(Cl)ccc3n2)c1	.	-7.3	.	28.1
C[C@@H]1CN([C@H](C)CO)C(=O)c2cc(NC(=O)CCCN(C)C)ccc2O[C@@H]1CN(C)Cc1ccc(C(=O)O)cc1	0.0249	.	53.7	4.5
CC(Oc1ccc(Cl)cc1Cl)C(=O)Nc1cccc(Cl)c1N1CCOCC1 (stereo not given)	.	3.6	.	8.8
C[C@@H]1CCCCO[C@H](CN(C)S(=O)(=O)c2cccs2)[C@@H](C)CN([C@H](C)CO)C(=O)c2cc(NS(C)(=O)=O)ccc2O1	0.0703	.	-0.3	-2.5
CC(C)(C)c1ccc(OCC(=O)NCc2ccccn2)c(Br)c1	.	-7.8	.	-95.6
COc1ccc(S(=O)(=O)N(C)C[C@@H]2Oc3ccc(NC(=O)Nc4ccc(C(F)(F)F)cc4)cc3C(=O)N([C@H](C)CO)C[C@@H]2C)cc1	-0.514	-1.1	.	38.6
C=C(C)[C@H]1C[C@@]2(C)C(=CC1=O)CC[C@@H](O)[C@@H]2C	-0.204	2.2	-3.0	-2.9
Cc1ccc(-n2c(SCC(=O)Nc3ccc4c(c3)OCCO4)nnc2-c2ccco2)cc1	.	-0.4	.	6.6
Cc1ccc(S(=O)(=O)N(C)C[C@H]2Oc3ccc(NC(=O)Nc4ccc(C(F)(F)F)cc4)cc3C(=O)N([C@H](C)CO)C[C@@H]2C)cc1	0.353	.	-16.7	26.2
CCC(Sc1nnc(-c2ccc([N+](=O)[O-])cc2)n1C)C(=O)Nc1ccc(Br)cc1 (stereo not given)	.	1.0	.	5.8
CC(C)NC(=O)N(C)C[C@H]1Oc2ccc(NS(C)(=O)=O)cc2C(=O)N([C@H](C)CO)C[C@H]1C	0.247	0.8	.	-6.3
Cc1ccc(S(=O)(=O)Nc2ccc3c(c2)C(=O)N([C@@H](C)CO)C[C@@H](C)[C@@H](CN(C)S(=O)(=O)c2c(C)noc2C)O3)cc1	-0.645	1.0	19.4	1.1
C[C@@H]1CN([C@H](C)CO)C(=O)c2cccc(NC(=O)NC3CCCCC3)c2O[C@@H]1CN(C)Cc1ccncc1	0.00266	2.1	-20.5	-3.6
COC(=O)c1c(NC(=O)Cn2ccc([N+](=O)[O-])n2)sc2c1CCCC2	.	-1.6	.	8.9

Single records (already shown). Screens in order: YB-1 expr inh	PD-1 reversal	Hedgehog inh	MITF inh
`Cc1ccc(S(=O)(=O)N(C)C[C@H]2Oc3ccc(NC(=O)Nc4ccc(C(F)(F)F)cc4)cc3C(=O)N([C@H](C)CO)C[C@@H]2C)cc1` as listed: 0.353	.	-16.7	26.2
`CC(C)(C)c1ccc(OCC(=O)NCc2ccccn2)c(Br)c1` as listed: .	-7.8	.	-95.6
`COC(=O)c1c(NC(=O)Cn2ccc([N+](=O)[O-])n2)sc2c1CCCC2` as listed: .	-1.6	.	8.9
`CCC(Sc1nnc(-c2ccc([N+](=O)[O-])cc2)n1C)C(=O)Nc1ccc(Br)cc1` (stereo not given) as listed: .	1.0	.	5.8
`CC(C(=O)Nc1ccccc1Br)N(c1ccc(Cl)cc1)S(C)(=O)=O` (stereo not given) as listed: .	-0.5	.	6.0

Two consecutive records already listed, for reference:
SMILES	YB-1 expr inh	PD-1 reversal	Hedgehog inh	MITF inh
CC(C(=O)Nc1ccccc1Br)N(c1ccc(Cl)cc1)S(C)(=O)=O (stereo not given)	.	-0.5	.	6.0
C[C@H]1CN([C@@H](C)CO)C(=O)c2cccc(NC(=O)c3ccncc3)c2O[C@H]1CN(C)C(=O)Nc1ccc(F)cc1	-0.174	1.3	-21.0	2.8

(continued)
SMILES	YB-1 expr inh	PD-1 reversal	Hedgehog inh	MITF inh
COc1ccccc1NC(=O)c1c(NC(=O)Cc2ccc([N+](=O)[O-])cc2)sc(C)c1C	.	-1.7	.	-0.6
CC(=O)Nc1cc2ccccc2oc1=O	0.115	.	-34.7	-10.4
C[C@@H]1CN([C@H](C)CO)C(=O)Cc2cc(N(C)C)ccc2O[C@@H]1CN(C)S(=O)(=O)c1ccc(F)cc1	0.202	.	-76.8	-7.1
CCOC(=O)c1c(CN(CC)CC)oc2ccc(OC)cc12	0.148	0.4	28.4	-2.3
COc1ccc(NC(=O)C(C(=O)Nc2ccc(OC)cc2)C23CC4CC(CC(C4)C2)C3)cc1	-0.073	0.3	-28.6	1.4
Cc1noc(C)c1S(=O)(=O)N(C)C[C@H]1Oc2ccc(NC(=O)C3CC3)cc2CC(=O)N([C@@H](C)CO)C[C@H]1C	0.151	-1.4	12.4	-12.8
O=C(CSc1nnc(CN2CCOCC2)n1-c1ccccc1)N1CCc2ccccc21	.	0.0	.	-3.9
Cc1noc(C)c1NC(=O)Nc1ccc2c(c1)C(=O)N([C@@H](C)CO)C[C@@H](C)[C@@H](CN(C)CC1CCCCC1)O2	-0.015	.	.	-4.4
CCc1ccc(OCC(=O)Nc2cc(OC)ccc2OC)c(Br)c1	.	-1.1	.	-57.4
COc1ccc(S(=O)(=O)Nc2ccc3c(c2)CC(=O)N([C@@H](C)CO)C[C@H](C)[C@@H](CN(C)CC2CCCCC2)O3)cc1	0.112	.	20.1	12.4
Cc1noc(C)c1S(=O)(=O)Nc1cccc2c1O[C@H](CN(C)CC1CC1)[C@H](C)CN([C@H](C)CO)C2=O	0.466	1.9	-33.5	2.4
Cc1noc(C)c1NC(=O)Nc1ccc2c(c1)CC(=O)N([C@H](C)CO)C[C@H](C)[C@H](CN(C)C(=O)Nc1ccc(F)cc1)O2	0.257	0.0	-0.8	-7.1
C[C@@H]1CN([C@@H](C)CO)C(=O)c2cc(NC(=O)Nc3cccc4ccccc34)ccc2O[C@H]1CN(C)CC1CCCCC1	0.317	-0.6	33.9	-13.5
Cc1ccc2oc(-c3cccc(NC(=O)COc4ccc5ccccc5c4)c3)nc2c1	.	-2.2	.	-26.5
CC(Sc1nc(O)c(-c2ccccc2)c(=O)[nH]1)C(=O)Nc1ccc(Cl)cc1 (stereo not given)	.	3.5	.	6.1
C[C@H](CO)N1C[C@H](C)[C@@H](CN(C)Cc2ccc(Oc3ccccc3)cc2)Oc2c(NC(=O)c3ccc(-c4nccs4)cc3)cccc2C1=O	-0.672	-1.9	-4.4	40.0
C[C@@H]1CN([C@@H](C)CO)C(=O)Cc2cc(NC(=O)NC3CCCCC3)ccc2O[C@@H]1CN(C)C(=O)Nc1ccc(C(F)(F)F)cc1	0.223	-2.6	-2.1	-2.8
Cc1noc(C)c1S(=O)(=O)N(C)C[C@@H]1Oc2c(cccc2N(C)C)C(=O)N([C@@H](C)CO)C[C@H]1C	-0.0102	1.1	18.4	-2.0
COc1ccc(NC(=O)CSc2n[nH]c(-c3ccccc3)n2)cc1	.	1.9	.	-4.2
C[C@@H]1CN([C@@H](C)CO)C(=O)c2cc(NC(=O)C3CC3)ccc2O[C@@H]1CN(C)Cc1ccc(C(F)(F)F)cc1	0.0616	0.3	.	1.7
C[C@@H]1CN([C@@H](C)CO)C(=O)Cc2cc(NS(=O)(=O)c3cccs3)ccc2O[C@@H]1CN(C)S(=O)(=O)c1cn(C)cn1	-0.0393	1.9	-25.6	-30.0
CS(=O)(=O)N(CC(=O)Nc1ccc(C(N)=O)cc1)c1cc(Cl)cc(Cl)c1	.	0.1	.	3.4
Cc1noc(C)c1NC(=O)N(C)C[C@H]1Oc2ccc(NS(=O)(=O)c3cccs3)cc2CC(=O)N([C@@H](C)CO)C[C@@H]1C	-0.0187	1.9	5.2	-5.0
CCn1c(SCC(=O)Nc2c(C)cccc2C)nnc1-c1cnccn1	.	0.1	.	-21.1
COc1ccc(NC(=O)Nc2cccc3c2O[C@@H](CN(C)Cc2ccccc2)[C@@H](C)CN([C@@H](C)CO)C3=O)cc1	-0.105	1.3	-30.3	-5.6
C[C@@H]1CN([C@@H](C)CO)C(=O)c2cccc(NC(=O)C3CC3)c2O[C@@H]1CN(C)Cc1ccc(-c2ccccc2)cc1	0.409	0.8	-1.8	-3.8
C[C@@H]1CN([C@H](C)CO)C(=O)c2cc(N(C)C)ccc2O[C@H]1CN(C)S(=O)(=O)c1ccc(F)cc1	0.00271	0.0	-0.1	-2.8
C[C@H]1CN([C@@H](C)CO)C(=O)c2cccc(NS(=O)(=O)c3ccccc3)c2O[C@@H]1CN(C)C	-0.651	3.2	-42.5	0.9
COc1ccc2c(=S)c(-c3cc4ccccc4o3)c(C)oc2c1	-0.0936	2.3	-63.9	-11.4
Cc1cc(C(=O)Nc2cccc3c2O[C@H](CN(C)C(=O)Nc2cccc4ccccc24)[C@@H](C)CN([C@H](C)CO)C3=O)n(C)n1	0.33	0.1	7.9	1.4
Cc1noc(C)c1NC(=O)N(C)C[C@@H]1Oc2c(NC(=O)Nc3ccc(F)cc3)cccc2C(=O)N([C@@H](C)CO)C[C@@H]1C	0.366	0.6	19.1	-2.0
C[C@@H]1CN([C@@H](C)CO)C(=O)c2cccc(NC(=O)c3ccncc3)c2O[C@@H]1CN(C)Cc1ccc(C(F)(F)F)cc1	2.17	0.7	15.3	-6.2
Cc1noc(C)c1NC(=O)Nc1ccc2c(c1)CC(=O)N([C@H](C)CO)C[C@@H](C)[C@H](CN(C)C(=O)Nc1ccc(C(F)(F)F)cc1)O2	-0.0861	.	-28.0	-6.8
O=C(CSc1nnc(-c2ccncc2)o1)c1cccc([N+](=O)[O-])c1	.	-3.8	.	4.7
CC(C)c1ccc(OCC(=O)Nc2ccc(Br)cc2C(=O)O)cc1	.	3.5	.	-2.4
COc1ccccc1Nc1nc(N)nc(CSc2nccn2C)n1	.	-0.4	.	-49.5
C[C@@H]1CN([C@@H](C)CO)C(=O)c2cccc(NS(=O)(=O)c3ccccc3)c2O[C@@H]1CN(C)C(=O)NC1CCCCC1	0.32	-2.0	-1.8	3.4
CC(C)NC(=O)N(C)C[C@H]1Oc2ccc(NC(=O)Cc3cn(C)c4ccccc34)cc2C(=O)N([C@H](C)CO)C[C@H]1C	-0.181	0.8	-12.5	4.0
C[C@@H]1CCCCO[C@@H](CN(C)Cc2ccncc2)[C@@H](C)CN([C@H](C)CO)C(=O)c2cc(NC(=O)c3ccccc3)ccc2O1	0.148	.	-15.0	-6.6
C[C@@H]1CN([C@H](C)CO)C(=O)c2cc(NC(=O)C3CCCCC3)ccc2O[C@H]1CN(C)Cc1ccncc1	-0.0618	-0.5	-19.4	8.9
O=C(CCCC(=O)Nc1cc(C(F)(F)F)ccc1Cl)Nc1cc(C(F)(F)F)ccc1Cl	.	2.2	.	31.2
COc1ccc(NC(=O)N(C)C[C@H]2Oc3ccc(NC(=O)NC(C)C)cc3C(=O)N([C@@H](C)CO)C[C@H]2C)cc1	0.159	-0.7	-19.4	-7.6
C[C@H]1CN([C@@H](C)CO)C(=O)c2cc(NC(=O)C3CCCCC3)ccc2O[C@@H]1CN(C)C(=O)Nc1cccc2ccccc12	0.0157	-1.4	-36.8	-0.5
COc1ccc(S(=O)(=O)N(C)C[C@@H]2Oc3c(NS(=O)(=O)c4ccc(F)cc4)cccc3C(=O)N([C@@H](C)CO)C[C@@H]2C)cc1	0.0233	-2.0	8.2	1.0
OC(CSc1nc2ccccc2s1)Cn1c2ccccc2c2ccccc21 (stereo not given)	.	0.3	.	1.6
COc1cc(C(=O)Nc2ccc(C(=O)NCC3CCCO3)cc2)cc(OC)c1OC (stereo not given)	.	1.9	.	-30.4
C[C@H]1CN([C@@H](C)CO)C(=O)c2cccc(NC(=O)c3ccncc3)c2O[C@H]1CN(C)C(=O)NC1CCCCC1	0.379	1.6	-4.7	-7.8
C[C@@H]1CN([C@H](C)CO)C(=O)Cc2cc(NC(=O)Nc3ccc(F)cc3)ccc2O[C@H]1CN(C)Cc1ccc(C(=O)Nc2ccccc2N)cc1	-0.172	-0.2	.	-2.6
C[C@H]1CN([C@@H](C)CO)C(=O)Cc2cc(NS(=O)(=O)c3cn(C)cn3)ccc2O[C@@H]1CN(C)Cc1ccc(Cl)c(Cl)c1	0.398	1.3	15.2	-3.1
COc1ccc(N(CN2C(=O)c3ccccc3C2=O)C(=O)c2ccccc2)cc1	-0.445	-0.2	.	-1.3
